CBX7 inh: inhibitors of human CBX7 binding to H3K27me3 peptide; AID 1224903; O95931; normalised signal (fraction of DMSO) (concentration not given with the values); hit rate 1.1% among 66,000; AlphaScreen His6-CBX7 / biotin-H3K27me3 peptide binding; active compounds read low; in the data active means normalised signal below about 0.5;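 further: 100 nL library stock added to about 20 µL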
Target sequence (O95931 whole entry, looked up): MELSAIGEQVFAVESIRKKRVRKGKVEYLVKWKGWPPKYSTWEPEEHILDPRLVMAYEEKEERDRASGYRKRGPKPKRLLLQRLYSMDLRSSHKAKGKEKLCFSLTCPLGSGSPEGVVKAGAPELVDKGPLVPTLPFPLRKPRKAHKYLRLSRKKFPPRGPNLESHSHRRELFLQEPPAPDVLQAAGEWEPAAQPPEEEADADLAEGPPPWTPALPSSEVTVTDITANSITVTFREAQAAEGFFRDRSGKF
CBX7 inh z-score: also measured in CBX7 inh; calls as there; z-score; measured here: z-score of CBX7 signal; some inactives read as strong as hits; reference of the scale not given here;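 same signal on another scale; lower means less binding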
Starred values were filed as active, the others as inactive.

SMILES	CBX7 inh	CBX7 inh z-score
COc1ccc(S(=O)(=O)N(CC(=O)Nc2cccnc2)c2ccc(C)cc2)cc1OC	0.98	-0.54
COc1ccc(C(=O)Nc2cccc(-c3cn4c(C)cccc4n3)c2)cc1	0.85	-2.6
CCc1ccccc1N(CC)C(=O)Cn1nc(Cc2ccncc2)c2ccccc2c1=O	1	0.11
Cc1ccccc1-c1noc(-c2c(-c3ccccc3Cl)noc2C)n1	1.1	3.2
COc1ccccc1C(=O)Nc1ccc(NC(=O)c2ccccc2)c(C)c1	1.2	1.2
COc1cccc(C(=O)Nc2c3c(nn2-c2cccc(Cl)c2)CS(=O)(=O)C3)c1	0.94	-0.4
COc1ccc(-c2noc(CCC(=O)Nc3ccc(F)c(Cl)c3)n2)cc1	1.1	0.14
COC(=O)c1c[nH]n2c(=O)c(Cc3cccc(C)c3)c(C)nc12	1.1	0.11
CCCn1cnc2cc(NCc3ccc(OC)c(OC)c3)ccc21	0.81	-5.5
O=C1CN(C(=O)Cc2cccc3ccccc23)C(c2ccc(F)cc2)c2cc(F)ccc2N1 (configuration not stated)	0.68	-0.67
O=C(Cn1nc(-c2ccccc2)ccc1=O)NC1CCCC1	1	-0.016
COc1ccc(C)cc1N(C)C(=O)CCc1nc(-c2ccc(C)cc2)no1	0.99	-0.2
CC(C)Oc1nc(-c2ccccc2Cl)nc2ccccc12	1.1	2.8
COc1ccc(OC)c(NC(=O)COc2cc(=O)n(C)c3ccccc23)c1	0.86	-2.3
COc1ccc(NC(=O)c2cc(-c3ccc(O)cc3)on2)cc1	1	0.8
COC(=O)c1ccc(-n2nnnc2SCC(=O)Nc2c(C)cccc2C)cc1	1.1	0.55
CCOC(=O)Cn1c(=O)c(-c2cc(Br)ccc2NC)nc2cc3ccccc3cc21	0.84	-2.1
O=C(NC1CCCC1)c1ccc2c(c1)N(Cc1ccc(Cl)cc1)CCS2	1.1	1.3
Cc1cc(C)n(-c2nc3ccccc3nc2Nc2ccc(C)c(Cl)c2)n1	2.2	25
CCc1ccc(CNC(=O)C2CC(=O)N(CCc3ccc(OC)c(OC)c3)C2)cc1 (configuration not stated)	0.95	-1.3
COc1cccc(-c2nn(C)c3sc(C(=O)N4CCCC4)cc23)c1	0.8	-2.6
Cc1ccccc1OCC(O)Cn1c(C)nc2ccccc21 (configuration not stated)	0.87	-1.3
CCOC(=O)c1ccc(NC(=O)CCNS(=O)(=O)c2ccc3c(c2)CCC(=O)N3)cc1	0.99	-0.27
Cc1c(C(=O)N2CCCCCC2)sc2ncnc(N3CCN(c4ccccc4)CC3)c12	1.2	2
COc1cccc(-c2cc(C(F)(F)F)nc(N3CCN(c4ccc(F)cc4)CC3)n2)c1	1.1	5.5

In a second layout: entries from further up.
Compound: CCc1ccccc1N(CC)C(=O)Cn1nc(Cc2ccncc2)c2ccccc2c1=O
  CBX7 inh: 1
  CBX7 inh z-score: 0.11

Compound: Cc1ccccc1-c1noc(-c2c(-c3ccccc3Cl)noc2C)n1
  CBX7 inh: 1.1
  CBX7 inh z-score: 3.2

A section taken from the entries so far, as a working copy:
SMILES	CBX7 inh	CBX7 inh z-score
COc1ccc(S(=O)(=O)N(CC(=O)Nc2cccnc2)c2ccc(C)cc2)cc1OC	0.98	-0.54
COc1ccc(C(=O)Nc2cccc(-c3cn4c(C)cccc4n3)c2)cc1	0.85	-2.6
CCc1ccccc1N(CC)C(=O)Cn1nc(Cc2ccncc2)c2ccccc2c1=O	1	0.11
Cc1ccccc1-c1noc(-c2c(-c3ccccc3Cl)noc2C)n1	1.1	3.2
COc1ccccc1C(=O)Nc1ccc(NC(=O)c2ccccc2)c(C)c1	1.2	1.2
COc1cccc(C(=O)Nc2c3c(nn2-c2cccc(Cl)c2)CS(=O)(=O)C3)c1	0.94	-0.4
COc1ccc(-c2noc(CCC(=O)Nc3ccc(F)c(Cl)c3)n2)cc1	1.1	0.14
COC(=O)c1c[nH]n2c(=O)c(Cc3cccc(C)c3)c(C)nc12	1.1	0.11
CCCn1cnc2cc(NCc3ccc(OC)c(OC)c3)ccc21	0.81	-5.5
O=C1CN(C(=O)Cc2cccc3ccccc23)C(c2ccc(F)cc2)c2cc(F)ccc2N1 (configuration not stated)	0.68	-0.67
O=C(Cn1nc(-c2ccccc2)ccc1=O)NC1CCCC1	1	-0.016
COc1ccc(C)cc1N(C)C(=O)CCc1nc(-c2ccc(C)cc2)no1	0.99	-0.2
CC(C)Oc1nc(-c2ccccc2Cl)nc2ccccc12	1.1	2.8
COc1ccc(OC)c(NC(=O)COc2cc(=O)n(C)c3ccccc23)c1	0.86	-2.3

Following part.
SMILES	CBX7 inh	CBX7 inh z-score
COc1ccc(CCn2c(C)cc(C(=O)CN3CCOCC3)c2C)cc1OC	0.81	-2.5
COc1ccccc1NC(=O)CSc1nc(-c2ccc(Cl)cc2)cn1-c1ccccc1	0.63	-12
COc1cc2c(C(=O)NCCC3=CCCCC3)cn(CC(C)C)c(=O)c2cc1OC	1.1	0.92
CCCCNS(=O)(=O)c1ccc2nc(-c3cccs3)cc(C(=O)NC(C)C)c2c1	0.99	-0.12
Cc1nc2cc(-c3cccc(F)c3)nn2c(C)c1CCC(=O)NCC(N)=O	1.1	2.6
C=CCN1C(=O)c2ccccc2Sc2ccc(C(=O)NCc3cccnc3)cc21	0.88	-1.7
Cc1cccc(N2C(=O)CC(NCc3ccc(S(N)(=O)=O)cc3)C2=O)c1 (configuration not stated)	1	0.29
CCOc1ccc2nc(N3CCC(C(=O)NC4CCCCCC4)CC3)sc2c1	1	0.016
COCCNC(=O)c1noc2c1CCc1ccccc1-2	1.2	1
COc1ccccc1NC(=O)Cn1cnc2sc(C(=O)Nc3ccccc3F)c(C)c2c1=O	1.1	0.72
CCOC(=O)c1cnc2c(Cl)cccc2c1Nc1ccc(OC)cc1	0.79	-2.3
CCOc1ccc(NC(=O)CCNS(=O)(=O)c2ccc3c(c2)CCN3C(C)=O)cc1	0.89	-2.1
Cc1c(C(=O)Nc2ccc(F)cc2)oc2ccc(S(=O)(=O)N3CCOCC3)cc12	1.1	1.9
Cc1ccccc1CN1C(=O)C(O)(CC(=O)c2ccc3c(c2)OCCO3)c2ccccc21 (configuration not stated)	0.65	-3.3
COc1ccc(-n2c(C)nc3c(cnn3-c3ccc(F)cc3)c2=O)cc1	0.94	-0.73
Cn1c(/C=C/c2cn(C)c3ccccc23)nc2ccccc2c1=O	1	0.0093
O=C(CC1Oc2ccccc2NC1=O)NCc1ccc(Cl)cc1 (configuration not stated)	1	0.18
CCc1ccc(NC(=O)C2(S(=O)(=O)c3ccc(C)cc3)CC2)cc1	1.1	2.4
CC1CCN(CCCNS(=O)(=O)c2cc(Br)cc3c2N(C(=O)C2CC2)CC3)CC1	0.97	-1.6
C=CCSc1nnc(Cc2cc(=O)[nH]c(=O)[nH]2)n1-c1ccc(F)cc1	1	0.37
CC(=O)Nc1cccc(NC(=O)Cn2cnc3c(nnn3Cc3ccc(C)cc3)c2=O)c1	1	0.15
O=C1CN(C(=O)Cc2ccccc2)C(c2ccccc2)c2cc(F)ccc2N1 (configuration not stated)	0.99	-0.13
Cc1oc(-c2cccc(Cl)c2)nc1CN1CCC(C(=O)N2CCC(Cc3ccccc3)CC2)CC1	0.95	-1.4
O=C(Nc1ccc2oc(-c3cccnc3)nc2c1)c1cccc(Cl)c1	0.96	-0.053
O=C(NC1CCCC1)C(c1ccccc1)N(Cc1ccccc1)Cc1ccccc1 (configuration not stated)	1	-0.0028

Other records follow:
SMILES	CBX7 inh	CBX7 inh z-score
CCCN(CCC)C(=O)c1ccc2c(c1)N(Cc1ccc(Cl)cc1)C(=O)c1ccccc1S2=O (configuration not stated)	0.82	-3.4
COc1ccccc1N1C(=O)c2ccc(C(=O)Nc3ccc(Br)cc3)cc2C1=O	0.96	-1.4
Cc1cccc(C)c1NC(=O)c1cnn(-c2ccc(F)cc2)c1C1CCN(C(=O)OC(C)(C)C)CC1	0.99	-0.21
COc1ccc(-c2noc(CCC(=O)N3CCN(c4cc(C)ccc4C)CC3)n2)cc1	0.93	-1
Cc1c(Cl)cccc1-n1ncnc1-c1ccccc1Cl	0.93	-0.84
CC1=Nc2cc(C(=O)NCc3ccc(C)cc3)ccc2Sc2ccccc21	1	0.39
Cc1nc(N2CCOCC2)c2c(C)c(C(=O)N3CCN(C)CC3)sc2n1	0.96	-1.1
CCCCn1c(C2CC(=O)N(c3ccc(C)cc3C)C2)nc2ccccc21 (configuration not stated)	1.1	0.93
COc1ccccc1OCc1nc(C#N)c(NCc2cccnc2)o1	1	0.24
Cc1cc(N2CCOCC2)nc2ccc(NC(=O)CCC(=O)N(C)c3cccc(Cl)c3)cc12	1	1.6
Cc1ccc(NC(=O)C2CCN(C(=O)c3cc4sccc4n3Cc3ccc(F)cc3)CC2)c(C)c1	0.99	-0.43
O=C(c1cc2c(s1)-c1ccccc1OC2)N1CCN(c2ccccc2F)CC1	1.3	9.1
COc1ccc(C(=O)Nc2c3c(nn2-c2cccc(Cl)c2)CSC3)cc1	1	0.39
CC(C)CC(=O)Nc1c(-c2ccc(F)cc2)nc2ccccn12	1.1	0.098
Cc1c(C(=O)N2CCN(c3ccc(F)cc3)CC2)sc2ncnc(N(C)c3ccccc3)c12	0.91	-4.2
COc1ccc(CCNC(=O)CN2N=C(c3ccc(Cl)cc3)CCC2=O)cc1OC	0.96	-0.63
COc1ccc(N2C(=O)C3C4c5ccccc5C(C(C)O)(c5ccccc54)C3C2=O)cc1 (configuration not stated)	1.1	2.1
Cc1ccc(S(=O)(=O)N2CCN(c3ccc4nnc(-c5ccccc5)n4n3)CC2)cc1	0.7	-4.2
CCN(CCNC(=O)c1csc2c1CCCCC2)c1ccccc1	0.99	-0.43
COc1cc2c(C(=O)NCCCOC(C)C)cn(C)c(=O)c2cc1OC	1	0.13
CCOC(=O)N1CCC(Nc2c(N3CCN(c4cc(Cl)ccc4C)CC3)c(=O)c2=O)CC1	0.94	-0.94
CCCCN(CCCNC(=O)Cn1ncc2ccsc2c1=O)Cc1ccccc1	1	0.18
Cc1[nH]c2ccc(-c3nnc(SCCO)n3-c3ccccc3)cc2c1C	0.8	-2.7
CCc1cccc(NC2c3ccccc3C(=O)N2c2cccnc2)c1 (configuration not stated)	1	0.63
CN(Cc1ccccc1)C(C(=O)NC1CCCC1)c1ccc(Cl)cc1 (configuration not stated)	1	0.3

Going on with the list.
SMILES	CBX7 inh	CBX7 inh z-score
Cc1ccc(C(O)(c2ccccc2)c2nc3ccccc3n2C(C)C)cc1 (configuration not stated)	0.99	-0.15
CCCCOc1ccc(-c2cc(C(=O)O)c3ccccc3n2)cc1	0.86	-1.5
COc1cccc2c(Nc3cccc(C(C)=O)c3)cc(C)nc12	0.86	-0.5
Cc1nc(Oc2cccc3ccccc23)c2c3c(sc2n1)CCC3	0.92	-2.3
Cc1cc(C)c(C(N)=O)c(Nc2cccc(Cl)c2C)n1	1.1	1.3
O=C(Nc1ccccc1C(F)(F)F)c1cnc2sccn2c1=O	0.81	-3.2
CN(C(=O)CCc1nc(-c2ccccc2F)no1)c1cccc(C(F)(F)F)c1	1	0.36
CC(=O)N1CCc2cc(S(=O)(=O)N3CCN(c4cccc(C)c4)C(C)C3)ccc21 (configuration not stated)	0.92	-2.7
COc1ccc(Nc2cc(C(=O)NCCC3=CCCCC3)c3ccccc3n2)c(OC)c1	0.79	-3.2
O=C(O)CCc1ccc(-c2ccccc2)n1-c1ccc(Br)cc1	0.86	-2.4
CCOc1ccccc1CNC(=O)C1CCC(=O)N1C(C)C (configuration not stated)	1.1	2
CC(C)=CCc1c(C)nc2ccccc2c1C(=O)O	0.99	-0.25
CCOC(=O)c1cnc2c(C)cc(C)cc2c1Nc1ccc(OC)c(OC)c1	1.1	1.6
COc1cc(CNc2ccc(-c3nc4ccccc4s3)cc2)ccc1OCC(=O)N1CCOCC1	1.2	6.1
Cc1ccc2cc(CCNC(=O)c3ccccc3F)c(=O)[nH]c2c1	1	0.31
CCOc1ccccc1NC(=O)c1nn(-c2cc(OC)cc(OC)c2)c(=O)c2ccccc12	0.98	-0.53
O=c1cc(NCc2ccc3c(c2)OCO3)[nH]c(=O)n1-c1ccc(Cl)cc1	1.1	0.37
O=C(NCC1(c2ccccc2)CCOCC1)C1(c2ccccc2)CCOCC1	1	0.14
Cn1c(-c2ccc3c(c2)OCO3)cc(=O)c2ccccc21	1	0.14
O=C(NCCCN1CCCCC1)C1(S(=O)(=O)c2ccc(Cl)cc2)CC1	0.98	-1.1
CC1(C)CC(=O)N(CC(=O)NCc2ccccn2)c2ccccc2S1	0.99	-0.25
CCN(CCCNC(=O)c1ccc(NC2=NC3CS(=O)(=O)CC3S2)cc1)c1ccccc1 (configuration not stated)	0.92	-1.5
COc1ccc(-c2cc(C(=O)Nc3ccc(OC)c(OC)c3)no2)cc1	0.86	-0.49
COc1ccc(-c2ccc(=O)n(CC(=O)Nc3cc(C)cc(C)c3)n2)cc1	1	0.055
O=S(=O)(c1cnc[nH]1)N1CCN(c2ccc(Cl)cc2)CC1	1.1	2.3

Continued:
SMILES	CBX7 inh	CBX7 inh z-score
COc1ccc(OC)c(C2CC(c3ccc(Br)cc3)Nc3ncnn32)c1 (configuration not stated)	0.95	-1.8
COc1ccc2cc(CCNC(=O)c3cccc(Cl)c3)c(=O)[nH]c2c1	1	1.2
O=C(Nc1cccc(F)c1)c1cccnc1N1CCOCC1	1	1.3
O=C(CCc1nc(-c2cccs2)no1)Nc1nc2ccccc2s1	1.1	0.052
Cc1ccc(Nc2c(-c3c(F)cccc3Cl)nc3cccc(C)n23)cc1	0.96	-1.5
O=C(O)C1CCN(Cc2cnn(-c3ccccc3)c2-n2cccc2)CC1	1.1	1.9
O=C(CN1C(=O)CSc2ccc(S(=O)(=O)N3CCCCC3)cc21)NCc1ccccc1Cl	0.95	-2.2
CCC(=O)Nc1nonc1-c1nc2ccccc2n1Cc1ccccc1C	1	0.009
O=C(c1ccc2nc(-c3ccco3)c(-c3ccco3)nc2c1)N1CCc2ccccc2C1	0.015*	-2.8*
CC(C)CN(CCNC(=O)CC1Oc2ccccc2NC1=O)CC(C)C (configuration not stated)	1.3	1.5
O=C(NCCc1ccccc1)c1ccc2nc(-c3cccs3)c(-c3cccs3)nc2c1	0.86	-0.14

This is a subset; the hit share may differ from the screen's.
